High-throughput results: PubChem BioAssay, several laboratories
Yeast UUG start = modulators of start codon recognition fidelity in yeast. S. cerevisiae UUG-firefly luciferase reporter, luminescence/redox ratio. activity score, % at 18.7 µM. hit rate 0.13% among 350,000;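 active means replicate mean at a twofold rise or more, about +100% in these data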;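 further: firefly luciferase made from a UUG start codon reports start codon fidelity; reporter light over untreated wells divided by growth signal over untreated wells; some hits fall short of that in this replicate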
Rce1 inhib = inhibitors of yeast Ras-converting enzyme; calls only; hit rate 0.27% among 290,000; yeast membranes, quenched prenylated peptide cleavage fluorescence; Q03530;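 active means fall in fluorescence gain of 50% or more versus controls, with final raw signal at or below 3038400; inconclusive means same 50% fall but final raw signal above 3038400; inactive means fall in fluorescence gain under 50%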;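 further: plate controls were neutral control wells for no effect and wells lacking membranes for full effect; tested at 10 µM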
PABP FP inh = PABP-poly(A) binding inhibition | P11940 | hit rate 1% among 290,000 | PABP-poly(A) RNA binding, fluorescence polarization | inhibition, % at 35 µM;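 active means 50% or more with normal probe brightness, or confirmed in later tests; inconclusive means above 50% with abnormal brightness, or retests that disagree; inactive means below 50% or failed in later tests; about a fifth of its hits are not listed in these tables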;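 further: calls also rest on retests at 20 µM and on dose response follow-up; controls were probe without protein and protein plus probe with vehicle; some compounds called inactive have numbers as strong as hits; many hits fall short of the cut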
Target sequence (P11940 whole entry, looked up): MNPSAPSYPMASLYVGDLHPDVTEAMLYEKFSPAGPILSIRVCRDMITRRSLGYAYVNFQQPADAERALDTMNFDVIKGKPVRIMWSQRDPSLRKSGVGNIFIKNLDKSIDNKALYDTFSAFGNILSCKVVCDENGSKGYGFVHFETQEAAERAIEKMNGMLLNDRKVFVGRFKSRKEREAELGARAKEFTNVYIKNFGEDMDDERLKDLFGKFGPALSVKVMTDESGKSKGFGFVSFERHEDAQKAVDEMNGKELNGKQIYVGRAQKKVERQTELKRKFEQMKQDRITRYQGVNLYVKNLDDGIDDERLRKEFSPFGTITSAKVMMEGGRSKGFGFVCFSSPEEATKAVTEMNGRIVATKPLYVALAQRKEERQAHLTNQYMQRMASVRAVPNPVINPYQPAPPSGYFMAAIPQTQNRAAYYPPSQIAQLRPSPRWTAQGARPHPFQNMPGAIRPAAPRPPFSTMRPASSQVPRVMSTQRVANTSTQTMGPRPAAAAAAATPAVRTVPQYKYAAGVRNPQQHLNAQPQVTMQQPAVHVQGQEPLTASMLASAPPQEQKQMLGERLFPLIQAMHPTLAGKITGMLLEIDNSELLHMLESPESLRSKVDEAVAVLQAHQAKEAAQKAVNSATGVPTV
CSC inhib = blocks cancer stem cells. cancer stem cell-like cells viability, luminescence. inhibition, % at 7.5 µM. hit rate 1.1% among 300,000. AID 2717;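 active means mean at 75% or more and at least half the replicates too; inconclusive means mean and replicates disagree; tested in HMLE shEcad cells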;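 further: 0% = median of negative and 100% = median of positive control wells; the first replicate is given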
HIV Env fusion = inhibitors of HIV Env-mediated cell fusion; HeLa-JRFL Env/CEM21 cell fusion, luciferase; inhibition, % at 12.3 µM; hit rate 1.1% among 360,000; AID 651610;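 active means mean replicate inhibition score of at least 50 and every replicate individually at or above 50; inconclusive means only one of the two criteria met; inactive means mean below 50 and not all replicates reaching 50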;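 further: 0% = plate neutral controls and 100% = maraviroc near 300 nM; one replicate is shown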
MT1-MMP act inh = inhibitors of human MT1-MMP activation. P50281. HT1080 RFP-PRO-GFP cells, GFP/RFP ratio fluorescence, overnight; percent of plate control window, DMSO zero. GFP/RFP ratio change, % at 20 µM. hit rate 0.061% among 360,000. AID 651647;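 active means GFP/RFP ratio change of at least 30% with cell ATP level not reduced by more than half and red fluorescence within 50% of control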; further: strong numbers were not always called active
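Compound: 20 µM single dose, 1% DMSO / System: HT1080 RFP-PRO-GFP cells / Controls: DMSO and RFP-L50D-GFP cell wells / Read-out basis: GFP/RFP fluorescence ratio / Schedule: overnight compound exposure at 37 °C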
eIF4H inh = inhibitors of RNA binding by human eIF4H; Q15056; eIF4H fluorescence polarization binding assay; inhibition, % at 35 µM; hit rate 0.94% among 290,000;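 active means 50% or more with normal probe brightness, or confirmed in later tests; inconclusive means above 50% with abnormal brightness, or retests that disagree; inactive means below 50% or failed in later tests; about a fifth of its hits are not listed in these tables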;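 further: calls also rest on retests at 20 µM and on dose response follow-up; 0% = protein and probe with vehicle and 100% = probe without protein; strong numbers were not always called active; many hits fall short of the cut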
eIF4H inh retest = also measured in eIF4H inh; calls as there; inhibition, %; compound at 20 µM; confirmation average;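 mean of two retest wells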
PABP FP inh retest = recorded beside PABP FP inh, whose call it bears; inhibition, %; compound at 20 µM; confirmation repeats;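 mean of two retest wells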
MT1-MMP act inh RFP = also measured in MT1-MMP act inh; calls as there; RFP signal change, %; measured here: RFP expression control read;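 0 = vehicle wells; hits needed this value within 50% of zero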
Active calls of the source: *; i = inactive; u = inconclusive; x = no result given.

SMILES	Yeast UUG start	Rce1 inhib	PABP FP inh	CSC inhib	HIV Env fusion	MT1-MMP act inh	MT1-MMP act inh RFP	eIF4H inh	others
CCOc1ccccc1N1CCN(C(=O)Nc2ccc(F)c(Cl)c2)CC1	-8	i	1	8	-43	8	-5	-4
Cc1nc(Nc2ccc(C(=O)O)cc2)nc(Nc2ccc(C(=O)O)cc2)c1[N+](=O)[O-]	x	i	15	-9	10	7	6	11
Cc1nc(Nc2nc(CSc3nc4ccccc4[nH]3)cc(=O)[nH]2)nc2ccccc12	-10	i	6	195*	161*	12	-8	-6
Cc1cc(Cl)c(OCCCCN2CCOCC2)c(Br)c1	-8	i	9	38	-9	6	3	4
O=C(O)CCC(=O)N1CC=C(c2ccccc2)CC1	x	i	2	0	-11	2	3	-4
CC(=O)N1N=C(c2cccs2)CC1c1cc2cc(C)ccc2nc1Cl (stereo unspecified)	x	i	-6	1	5	2	5	-5
COc1ccccc1OCCNC(=O)CSC(=S)N1CCCC1	-7	i	x	-12	-6	2	4	x
CC(C)(C)C(=O)OCCNc1nc(-c2ccccc2)nc2ccccc12	-4	i	5	-6	2	6	1	-4
O=C(Nc1cc([N+](=O)[O-])ccc1N1CCCC1)c1ccco1	x	i	-16	-2	12	6	0	-5
CCOc1ccccc1N(CC(=O)Nc1cccnc1)S(=O)(=O)c1ccc(C)cc1	x	i	-3	x	1	-3	-1	0
CC(C)NS(=O)(=O)c1ccc(OCC(=O)N2CCCC2)c(Cl)c1	-8	i	-3	x	-4	-1	1	-8
Cc1ccnc(NC(=O)c2ccc(COc3ccc(Cl)cc3)o2)c1	-23	i	-1	-1	-38	-5	0	5
Cc1oc(-c2ccccc2F)nc1CN1CCC(C(=O)NC2CCCc3ccccc32)CC1 (stereo unspecified)	-3	x	1	-3	33	-1	-5	9
Cc1cccc(C)c1CC(=O)N1CCOCC1	-22	i	5	-3	11	-1	2	-5
CN(Cc1ccccc1)C(=O)CCS(=O)(=O)c1ccc2c(c1)NC(=O)CS2	-1	i	-4	-11	x	-1	0	-9
COc1cc(NS(=O)(=O)c2ccc(NC(=S)NC(=O)c3ccc(F)cc3)cc2)nc(OC)n1	-15	i	12	-2	8	2	7	-2
COc1cccc(CNS(=O)(=O)c2ccc(S(=O)(=O)N3CCCC3)cc2)c1	x	i	2	-2	13	-2	-1	-4
CC(Sc1nnc(CNC(=O)c2ccco2)n1C)C(=O)Nc1nccs1 (stereo unspecified)	-17	i	-2	x	5	0	1	2
O=C(Nc1ccc(F)cc1)C(c1ccccc1)N1CCN(CC(=O)N2CCOCC2)CC1 (stereo unspecified)	-3	x	x	8	3	4	1	x
Cc1cc(C(F)F)nn1CC(=O)N1CCSCC1	-6	i	-6	-11	-110	-3	6	-3
CCC1=C(OC(=O)N(CC)CC)N2C(=O)OC(=NCCOC)[C@]2(Cc2ccccc2)[C@H]2C1=CC[C@H]1C(=O)N(C)C(=O)[C@H]12	-9	i	7	-1	-47	-2	-2	-5
COc1ccc(CNC(=S)NCc2ccc(F)cc2)cc1	-24	i	-13	-14	15	-1	-3	-2
O=C(NCc1cccc(F)c1)Nc1nnc([C@H]2C[C@H](O)[C@@H](CO)O2)s1	-17	x	x	x	-21	2	4	x
COc1ccc(OC)c(NC(=O)C2CCN(C(=O)c3cccs3)CC2)c1	x	i	-3	-10	-15	-3	-3	-15
CC(Oc1ccc(Br)cc1)C(=O)Nc1cc(S(=O)(=O)N2CCOCC2)ccc1N1CCCC1 (stereo unspecified)	2	i	x	11	u	-5	-2	x
O=[N+]([O-])c1ccc(S(=O)(=O)Nc2ccc(-c3ccc(N4CCOCC4)nn3)cc2)cc1	x	i	x	10	-2	4	-2	x
CC(C)C(=O)Nc1nnc(S(=O)(=O)N2CCCc3ccccc32)s1	-17	i	-17	-2	-11	3	1	-4
CCOC(=O)Cn1nc(-c2ccccc2)c2ccccc2c1=O	-12	i	-7	-2	x	0	1	7
Cc1nc(-c2nc(CC(=O)NNC(=O)c3ccc(Cl)cc3)cs2)cs1	-15	i	4	10	-6	0	-3	-8
COc1cc(NC(=O)[C@H]2CCCN2S(=O)(=O)c2cccc3cccnc23)cc(OC)c1OC	-42	x	x	-16	20	-3	0	x
CCOc1ccc(NC(=O)CSc2nnc(C)n2CCCOC)cc1	-10	i	-2	-4	-33	-3	3	-1
COc1ccccc1NC(=O)c1ccc(-c2ccc(Br)cc2)o1	x	i	-8	55	x	-7	-12	0
COc1cc(NC(=O)c2cc3c(=O)n(C)c4ccccc4c3n2C)cc(OC)c1OC	-20	i	-1	9	10	2	4	-2
COc1cccc(CN2CCC2(C)C(=O)Nc2cnc3ccccc3c2)c1F (stereo unspecified)	-7	x	x	x	15	-2	-3	x
COCCN(CC(=O)Nc1ccccc1C(F)(F)F)C(=O)c1ccc(-n2cccn2)cc1	1	x	x	x	6	0	3	x
CN(CC(=O)N1CC(=O)N(CCc2ccccc2)C(=O)C1)S(=O)(=O)c1cccc2nsnc12	13	i	8	-6	-21	4	7	-6
CCC(C)(C(=O)NC1CCCC1)N(C(=O)CNC(C)=O)c1ccc(C)cc1 (stereo unspecified)	-14	i	14	-9	-12	8	5	0
S=C(NCCc1ccccc1)Nc1cnc2ccccc2c1	x	i	8	13	-29	-5	-6	13
O=C(CC1SCCNC1=O)Nc1cccc(C(F)(F)F)c1 (stereo unspecified)	-7	i	-1	-4	-152	1	2	1
CCC(C)(C)n1nnnc1C(c1cc2cc3c(cc2[nH]c1=O)OCO3)N1CCCCC1 (stereo unspecified)	-11	x	3	10	x	-13	-5	-6
Cc1onc(-c2ccccc2Cl)c1C(=O)Nc1ccc(S(=O)(=O)NCC2CCCO2)cc1 (stereo unspecified)	2	i	-11	-11	x	3	-3	2
Nn1cnc2scc(-c3ccco3)c2c1=O	-17	i	-7	-11	0	0	5	-1
CCCC(=O)Nc1cccc(NC(=O)c2ccccc2Br)c1	-11	i	-10	-8	-16	1	-7	1
c1cc(-c2nsc(-c3ccncc3)n2)ccn1	-19	i	-10	0	24	-2	-1	-12
O=C(CCC(=O)OCC(=O)c1cccc([N+](=O)[O-])c1)Nc1ccccc1Cl	-14	i	-2	-3	-8	6	9	2
COC(=O)C1=CN(C(C)C)C=C(C(=O)OC)C1c1cc(Br)c(OC)c(OC)c1	x	i	5	9	x	-4	-6	1
CCOC(=O)C1(CCCc2ccccc2)CCN(C(=O)CSC)CC1	-3	i	-2	-1	32	-5	-7	-2
Cc1ccc(C)c(NC(=O)CSc2c(C)n[nH]c2C)c1	-1	x	-14	3	2	0	1	-2
O=C(NNC(=O)c1ccccc1Br)c1ccc(Cl)cc1	-13	i	0	-15	x	1	-1	2
CC(=O)Nc1cccc(NC(=O)CSc2nc(C)c(C)c(C)c2C#N)c1	-27	i	4	3	u	3	0	-4
COc1cc(S(=O)(=O)N(Cc2cccnc2)Cc2cccc(OC)c2OC)ccc1-n1cnnn1	16	i	2	-2	10	-2	-1	-16
Cc1onc(-c2ccccc2)c1C(=O)Nc1cccc(C#N)c1	-20	i	-16	-4	-4	1	4	-2
COc1cc(C=Cc2nnc3c4ccccc4cnn23)cc(OC)c1OC	-30	x	x	x	-11	3	2	x
O=C(COc1ccccc1)Nc1cccc(-c2nc3ccccc3[nH]2)c1	0	i	-4	3	16	4	-9	-6
CCN1CCN(C(=O)CCNC(=O)Cn2cnc3ccccc3c2=O)CC1	-19	i	6	-9	-4	2	0	5
O=S(=O)(c1ccc(Br)cc1)N1CCC(c2nc3ccccc3[nH]2)CC1	-11	i	4	24	22	-4	-10	-8
Cc1cccc(C(=O)OCC(=O)NCc2ccco2)c1	-13	x	x	-2	66*	4	2	x
Cc1cc(C(F)F)n2nc(C(=O)Nc3sc4c(c3C#N)CCC(C)C4)nc2n1 (stereo unspecified)	-20	i	-7	5	-14	2	3	-7
COc1ccc(C(C)=O)cc1Cn1c(C)c(C(=O)NCCC#N)sc1=O	-22	x	x	x	-80	0	3	x
C=CCN1C(=O)c2ccc(C(=O)N(CCOC)c3c(N)n(CCCC)c(=O)[nH]c3=O)cc2C1=O	-9	i	x	-9	-22	-4	0	x

Later entries.
SMILES	Yeast UUG start	Rce1 inhib	PABP FP inh	CSC inhib	HIV Env fusion	MT1-MMP act inh	MT1-MMP act inh RFP	eIF4H inh	others
CN(C)S(=O)(=O)c1cccc(NC(=O)CN2C(=O)NC(Cc3ccccc3)C2=O)c1 (stereo unspecified)	-10	x	x	-13	-16	2	1	x
Cc1cn([C@H]2C[C@H](O)[C@@H](CNC(=O)[C@H]3CCC(=O)N3)O2)c(=O)[nH]c1=O	6	x	x	x	-30	1	5	x
CCOc1ccccc1NC(=O)/C=C/c1ccc(S(=O)(=O)N2CCOCC2)cc1	3	x	x	x	-14	3	1	x
CCCN(CC1CC1)C(=O)CSc1ncnc2sc(C)c(C)c12	-21	i	-5	-8	69*	1	-8	-4
O=S1(=O)CC(N2CCC(Cc3ccccc3)CC2)CN1CCc1ccccc1 (stereo unspecified)	16	x	x	x	4	0	-8	x
CC(C)(C)c1ccc(C2=CC(c3ccccc3)n3ncnc3N2)cc1 (stereo unspecified)	-27	i	x	20	x	-28	-3	x
Cn1cnnc1SCC(=O)c1ccc2c(c1)OCO2	-15	i	-1	0	x	-1	1	3
CCCCN(C)c1c(C)nc2ccc(C(=O)N(C)CCN(C)C)cn12	-8	x	x	x	-137	0	4	x
CCOC(=O)C1CCN(C(=O)c2ccccc2NC(=O)c2ccc(Cl)cc2)CC1	-6	i	-2	x	-6	2	3	1
CC1CCCCN1C(=O)Cn1nnc(-c2cccnc2)n1 (stereo unspecified)	-12	i	4	x	x	-27	4	u
Cc1ccc(C)c(NC(=O)CCc2c(C)nn(-c3ccc(N4CCCCC4)nn3)c2C)c1	-6	i	2	-13	-9	-3	-6	-6
COc1ccc2c(c1)[nH]c(=O)c1sc3ccccc3c12	-8	i	6	-4	x	-10	-1	-8
COc1ccc(NC(=O)CNc2cccc(S(=O)(=O)N3CCCCCC3)c2)c([N+](=O)[O-])c1	-17	x	x	-1	3	7	-11	x
Cc1cc2nn(-c3ccccc3)nc2cc1NC(=O)c1cccs1	x	i	9	9	x	7	-7	1
CCN(CC)S(=O)(=O)c1cccc(C(=O)N[C@H](C(=O)Nc2nc3ccc(F)cc3s2)C(C)C)c1	x	i	65	26	5	-50	-42	-8	eIF4H inh retest=4;PABP FP inh retest=0
CCOC(=O)CSc1[nH]c2cc(OC)ccc2c1[N+](=O)[O-]	x	i	-3	-19	32	0	4	-4
COc1ccc(CN2CCC(C)(Oc3cccc(F)c3)C2)c2ccccc12 (stereo unspecified)	-4	x	x	x	32	-4	0	x
CC(=O)C1=NOC(CNc2ncc(C(F)(F)F)cc2Cl)C1 (stereo unspecified)	x	i	6	-11	1	-2	-1	4
O=C(N[C@@H]1C/C=C\C[C@H](CC(=O)N(CCO)Cc2ccccc2)C(=O)N[C@@H](Cc2c[nH]c3ccccc23)COC1=O)OCC1c2ccccc2-c2ccccc21	-13	x	x	9	-58	-1	-3	x
CC1CC(C)CN(C(=O)c2ccc(N3CC4CC(C3)c3cccc(=O)n3C4)c([N+](=O)[O-])c2)C1 (stereo unspecified)	x	i	-3	-3	4	-3	-3	5
CC(=O)Nc1cccc(NC(=O)CS(=O)(=O)c2cn(CC(=O)N(C(C)C)C(C)C)c3ccccc23)c1	2	i	-2	-5	-1	-1	2	9
